ALR H2O2 inh: inhibitors of human ALR sulfhydryl oxidase, primary screen, biochemical, H2O2 detection, HRP-luminol luminescence, single point; 290,000 compounds, 3.8% hits; purified ALR, DTT oxidation; FAD-linked sulfhydryl oxidase ALR (Homo sapiens), P55789; AID 485317, 2010; inhibition, % (concentration not given with the values);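 active = mean and each replicate at 75% or more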;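 also: stock transfer was 7.5 nL into about 7.5 µL; 0% = neutral wells and 100% = wells with inactivated enzyme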
Beta2AR agonist: beta2AR agonists driving receptor internalization, primary screen, cell-based, FAP fluorogen, flow cytometry; Beta-2 adrenergic receptor (Homo sapiens), P07550; Am2.2-beta2AR cells; reference of the scale not given here; response, % (test concentration not listed); 340,000 compounds, 0.43% hits; AID 504454, 2011;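 active = response above a set limit, near 3 SD of response in nonfluorescent compounds, cut at about 42% in these data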;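 also: stock transfer was 100 nL into about 11 µL; a reference agonist was the positive control; negative values mostly stem from fluorescent compounds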
UCH37 DUB inh: inhibitors of human UCH37 deubiquitinase, primary screen, biochemical, Ub-AMC cleavage, fluorescence; 330,000 compounds, 0.33% hits; inhibition, % (no concentration beside the values); AID 588478, 2011; purified proteasome/UCH37; Ubiquitin carboxyl-terminal hydrolase isozyme L5 (Homo sapiens), Q9Y5K5;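 active = mean of two replicates above 20%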;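 also: 0% = compound-free wells with enzyme and 100% = wells lacking proteasome; stock transfer was 100 nL into about 20 µL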
Target sequence (Q9Y5K5 whole entry, looked up): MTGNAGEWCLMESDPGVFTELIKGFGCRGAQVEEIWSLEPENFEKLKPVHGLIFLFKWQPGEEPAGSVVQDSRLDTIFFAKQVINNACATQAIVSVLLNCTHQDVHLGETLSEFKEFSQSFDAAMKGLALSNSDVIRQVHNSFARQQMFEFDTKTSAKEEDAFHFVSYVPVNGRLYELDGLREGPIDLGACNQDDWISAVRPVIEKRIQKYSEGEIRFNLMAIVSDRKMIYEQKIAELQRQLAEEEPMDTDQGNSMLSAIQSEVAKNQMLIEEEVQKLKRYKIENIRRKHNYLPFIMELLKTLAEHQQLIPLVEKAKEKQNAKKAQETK
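Material: human UCH37 enzyme supplied as purified proteasome complex / Amount: 0.15 nM proteasome as dispensed / Buffer or medium: pH 7.4 Tris-HCl (50 mM) with ovalbumin, ATP-MgCl2, DTT / Times: preincubation 30 min, reaction 25 min, room temperature / Technique: AMC fluorescence from Ub-AMC cleavage, excitation 355 nm, emission 460 nm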
E coli growth: E. coli growth inhibition, primary screen, OD600; AID 1053175, 2014; 330,000 compounds, 0.21% hits; Escherichia coli growth, 23 h; hits give low values; OD600 absorbance (test concentration not listed);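 active = OD600 absorbance below the run mean of sample wells minus 3.6 SD, in any replicate, cut at about 0.56 in these data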;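 also: stock transfer was 300 nL into about 60 µL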
LANA-H2B inh: blockers of LANA interaction with H2A/H2B – biochemical, FP readout, HTS, primary screen. Protein LANA1 (Human herpesvirus 8 type P (isolate GK18)), Q9QR71. cell-free LANA-H2A/H2B peptide, fluorescence polarization. inhibition, % (test concentration not listed). 320,000 compounds, 0.6% hits. AID 2629, 2010; in the data active = inhibition mostly above about 10%, no sharp cut-off; inactive = mostly below about 6.7%;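 also: stock transfer was 7.5 nL into about 10 µL; 0% = median of vehicle wells and 100% = median of positive control wells; one replicate is shown; the record names a cut of 25% in any replicate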
FGF22 binding: binders of human FGF22 protein, primary screen, FGF22 synaptogenesis inhibitor project, biophysical, thermal shift, single point. recombinant FGF22 thermal shift, SYPRO orange fluorescence; percent of sucrose octasulfate shift, DMSO zero. calls only at 9.99 µM. 340,000 compounds, 1.5% hits;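 active = melting point raised past a set limit in the mean and every replicate; three in four hits are not shown here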
Target sequence (Q9HCT0 whole entry, looked up): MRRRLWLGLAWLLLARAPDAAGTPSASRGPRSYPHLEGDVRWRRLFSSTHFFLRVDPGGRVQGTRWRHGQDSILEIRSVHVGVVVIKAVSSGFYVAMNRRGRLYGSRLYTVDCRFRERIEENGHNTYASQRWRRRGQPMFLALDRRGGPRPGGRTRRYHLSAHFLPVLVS
HNF4A DNA FP: change in binding of human HNF4A to DNA, primary screen, biochemical, fluorescence polarization, FITC-DNA; Hepatocyte nuclear factor 4-alpha (Homo sapiens), P41235; 1 h; activity change, % at 10 µM; 360,000 compounds, 0.3% hits; AID 1224865, 2016; in the data active = activity change above about 30%, passing the limit was not always enough;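 also: controls were the assay level and a saturating level of protein; the project sought stronger binding though the title names inhibitors; some compounds called inactive have numbers as strong as hits; positive values seem to mean higher polarization but the record does not say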
Target sequence (P41235 whole entry, looked up): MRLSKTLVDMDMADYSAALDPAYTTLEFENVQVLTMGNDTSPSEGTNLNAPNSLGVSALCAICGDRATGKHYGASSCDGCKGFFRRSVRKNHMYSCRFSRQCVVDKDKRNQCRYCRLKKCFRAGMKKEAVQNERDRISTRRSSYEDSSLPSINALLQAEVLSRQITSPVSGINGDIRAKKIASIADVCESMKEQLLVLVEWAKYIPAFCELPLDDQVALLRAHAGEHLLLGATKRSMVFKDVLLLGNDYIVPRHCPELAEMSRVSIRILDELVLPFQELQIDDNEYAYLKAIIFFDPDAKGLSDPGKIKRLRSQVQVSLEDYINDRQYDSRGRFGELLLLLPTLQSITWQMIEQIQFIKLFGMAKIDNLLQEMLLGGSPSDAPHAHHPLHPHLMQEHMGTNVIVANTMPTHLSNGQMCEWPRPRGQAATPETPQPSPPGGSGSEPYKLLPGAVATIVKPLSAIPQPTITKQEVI
An asterisk follows results filed as active; i = inactive; nt = no result given. An excerpt; count on the stated rates, not on these rows.

SMILES	ALR H2O2 inh	Beta2AR agonist	UCH37 DUB inh	E coli growth	LANA-H2B inh	FGF22 binding	HNF4A DNA FP
OC(Cn1ccnc1)c1ccc(Cl)cc1Cl (stereo unspecified)	-27	-3	-1.3	0.68	-0.4	nt	2.6
Cc1ccc2oc(C(=O)Nc3nnc(C)s3)c(C)c2c1	4	-6	-0.7	0.69	-4.4	nt	1.1
O=C(O)c1ccccc1C(=O)N1CCN(S(=O)(=O)c2cccc(C(F)(F)F)c2)CC1	1	3	-0.6	0.64	43*	i	2.5
CC(C)(C)c1ccc(C(=O)CC(=O)c2cc(Cl)ccc2O)cc1	-3	12	1.1	0.69	-0.6	nt	-1.1
CC1CN(Cc2nc3c(c(=O)[nH]c(=O)n3C)n2CCCc2ccccc2)CC(C)O1 (stereo unspecified)	-4	4	1.7	0.66	1.9	i	0.3
Cc1cc(C)c(OC2(c3ccccc3)OC(=O)c3ccccc32)c(C)c1 (stereo unspecified)	-19	4	2.3	0.65	-1.5	nt	-0.4
COc1ccc(C(CNC(=O)CCOc2ccccc2)N(C)C)cc1 (stereo unspecified)	-6	4	0.7	0.69	2.1	nt	-2.7
O=C(c1ccco1)n1nc(NCc2ccccc2)nc1NCc1ccccc1	-5	-2	-6.1	0.77	-4.3	nt	1.8
Cc1ccc(NC(=O)CNc2ccc(OC(C)C)cc2)cc1	10	12	-0.4	0.72	1.6	nt	1.4
O=C(Nc1ccccc1NC(=O)NC1CCCCC1)NC1CCCCC1	nt	5	-0.3	0.68	nt	nt	-0.5
CCOC(=O)c1c(C)[nH]c(C(=O)OCC(=O)N(C)c2c(N)n(Cc3ccccc3)c(=O)[nH]c2=O)c1C	-2	21	3.1	0.7	-0.5	i	4.8
COc1ccc(/C=C/C(=O)NC(=S)N2CCCC(C(N)=O)C2)cc1 (stereo unspecified)	5	5	6.6	0.63	3.8	i	0.8
CCn1cc(CN2CCCC(C(=O)Nc3ccc(-c4nc5ccccc5[nH]4)cc3)C2)c(C)n1 (stereo unspecified)	1	12	-0.9	0.66	0.8	i	-4.2
Cc1ccc2c(c1)C1CN(C)CCC1N2C(=S)Nc1ccc(OC(F)F)cc1 (stereo unspecified)	nt	-3	4.5	0.69	1.7	nt	0.6
O=C(CSc1nc(NS(=O)(=O)c2ccccc2)cc(=O)[nH]1)Nc1ccc(F)cc1	98*	3	2.6	0.7	1.2	nt	-0.3
CCOC(=O)c1ccccc1NC(=O)CSc1nc(N)cc(=O)[nH]1	3	8	-1.6	0.7	3.2	i	-1.8
Cc1ccc(OCc2n[nH]c(=S)n2Cc2ccccc2)cc1	nt	1	4.3	0.75	-11	i	2.9
Cn1c(=O)c2c(ncn2CC(=O)OCC(=O)NCCc2ccccc2)n(C)c1=O	nt	4	3.1	0.69	nt	i	0.1
C/C(CC(=O)N(C(C)C)C(C)C)=N\NC(=O)COc1ccc(Br)cc1Br	0	-20	nt	nt	-3.6	i	0.9
COC(=O)[C@H](CC(C)C)NC(=O)NCc1ccc(Cl)cc1	-3	3	3.3	0.65	-3.5	i	1.6
Cc1ccc(S(=O)(=O)N2CCOCC2)cc1NC(=O)CNC(C)c1ccccc1 (stereo unspecified)	-8	10	2.8	0.67	5.6	i	3.3
Cc1cccc(NC(=O)Cc2ccc(Br)cc2)n1	-7	0	4.0	0.68	-1.5	i	0.1
Cc1ccc(NC(=O)C(C)N2C(=O)c3ccccc3C2=O)cc1S(=O)(=O)N1CCOCC1 (stereo unspecified)	nt	5	1.7	0.64	nt	i	1.4
CCCCC1(C)Cc2ccccc2C(=S)N1 (stereo unspecified)	-21	3	-0.9	0.66	-0.1	nt	-3.6
Cc1cccc(N2C(=O)CC(N(C(=O)c3ccco3)c3cccc(C)c3)C2=O)c1 (stereo unspecified)	-7	1	3.6	0.65	0.2	nt	4.5
SMILES	ALR H2O2 inh	Beta2AR agonist	UCH37 DUB inh	E coli growth	LANA-H2B inh	FGF22 binding	HNF4A DNA FP
O=C(O)c1ccccc1S(=O)(=O)NCC(O)COc1ccc(Br)cc1 (stereo unspecified)	-1	-4	4.3	0.67	6.4	nt	-0.1
COc1ccc(N(Cc2ccc(N(C)C)cc2)C(=O)c2ccc(S(C)(=O)=O)cc2)cc1	61	-13	nt	nt	-2.4	i	0.8
COc1ccc(NC(=O)CN(C)C(=O)c2cc(S(=O)(=O)N(C)C)ccc2N2CCCC2)cc1	-7	10	1.5	0.63	4.9	i	-1.7
NS(=O)(=O)c1ccc(CCNC(=O)C(=O)NCC2OCCN2S(=O)(=O)c2ccc(F)cc2)cc1 (stereo unspecified)	-2	5	0.7	0.68	4.2	i	0.1
CN(C)C(=O)CSc1nc(-c2cccs2)c(-c2cccs2)[nH]1	99*	0	-14	0.67	3.1	i	1.2
Cc1ccc(-n2nnnc2SCC(=O)NNC(=O)c2ccco2)cc1C	3	3	1.3	0.7	0.4	i	2.5
Cc1ccc(S(=O)(=O)N2CCN(C(=O)COC(=O)C3CCC3)CC2)c(C)c1	-4	-8	0.8	0.72	2.7	i	-6.2
Cc1ccc(-n2cc(CNCCc3ncc(C)[nH]3)c(-c3ccc(F)cc3)n2)cc1	-18	27	3.8	0.6	-0.4	i	0.7
O=C(COc1c(Cl)cccc1Cl)NN1C(=O)CSC1=S	23	0	2.3	0.7	0.4	i	3.4
O=[N+]([O-])c1ccc(/C=C/C2=NN(c3ccccc3)C(c3ccco3)C2)o1 (stereo unspecified)	nt	-371	2.8	0.62	nt	i	26
COC(CNc1ncnc2sc(-c3ccccc3)cc12)OC	-3	-2	-44	0.66	-1.6	i	5.5
Cc1cc(NC(=O)CC(C)(C)C)nc2c1c(=O)oc1ccccc12	-4	5	1.4	0.7	2.3	i	4.2
O=c1oc2cc(OCc3nn[nH]n3)ccc2c2c1CCCC2	12	-2	-145	0.69	3.9	nt	-3.5
Cc1ccc(C)c(CNS(=O)(=O)c2c(C)[nH]c(C)c2C(=O)N2CCCC2)c1	-15	-1	0.9	0.65	3.4	i	3.5
COc1cc(S(=O)(=O)N2CCC(c3nc4ccccc4s3)CC2)ccc1S(=O)(=O)N1CC(C)CC(C)C1 (stereo unspecified)	0	2	1.0	0.71	0.5	nt	1.9
NS(=O)(=O)c1ccc(N2N=C(c3ccccc3)CC2c2ccc(F)cc2)cc1 (stereo unspecified)	-5	-1	-428	0.73	1.8	nt	1.3
Cc1ccnc(NC(=O)c2cc(S(=O)(=O)N3CCCCC3)ccc2Cl)c1	3	9	-18	0.7	2.3	nt	0.8
CCCCS(=O)(=O)/C=C\C=C/S(=O)(=O)CCCC	98*	40	0.6	0.67	-2.4	nt	-2.9
C=CCn1c(=O)c(C(=O)NC2CC2)c(O)c2cc(OC)c(OC)cc21	0	10	-3.6	0.71	-6.8	i	0.4
CN1C(=O)N(C)C2(c3ccccc3)NC(=O)NC12c1ccccc1 (stereo unspecified)	-28	3	3.0	0.73	-0.4	nt	0.4
CC(=O)N(c1ccccc1)c1nc(/C=C/C(=O)Nc2c(C)cc(C)cc2C)cs1	9	-2	5.1	0.75	1.0	nt	-0.1
Cc1cc(=O)oc2c3c(cc(OCC(=O)NC(C)C)c12)OC(C)(C)CC3	-6	-4	i	0.66	0.0	i	-1.4
CC(C)C(C(=O)Nc1nccs1)c1ccccc1 (stereo unspecified)	-2	-4	2.9	0.69	0.1	nt	2.0
CC1CCC2(CC1)NC(=O)N(CC(=O)NCc1ccc3c(c1)OCO3)C2=O (stereo unspecified)	-8	-2	1.3	0.69	-1.7	i	-1.0
CCn1c(Cl)c(C=O)s/c1=N\S(=O)(=O)c1ccccc1	37	115*	nt	nt	-0.7	i	3.0

Reformatted: entries from further up
mol,ALR H2O2 inh,Beta2AR agonist,UCH37 DUB inh,E coli growth,LANA-H2B inh,FGF22 binding,HNF4A DNA FP
CC(=O)N(c1ccccc1)c1nc(/C=C/C(=O)Nc2c(C)cc(C)cc2C)cs1,9,-2,5.1,0.75,1.0,nt,-0.1
O=C(O)c1ccccc1S(=O)(=O)NCC(O)COc1ccc(Br)cc1 (stereo unspecified),-1,-4,4.3,0.67,6.4,nt,-0.1
CN1C(=O)N(C)C2(c3ccccc3)NC(=O)NC12c1ccccc1 (stereo unspecified),-28,3,3.0,0.73,-0.4,nt,0.4
COc1ccc(N(Cc2ccc(N(C)C)cc2)C(=O)c2ccc(S(C)(=O)=O)cc2)cc1,61,-13,nt,nt,-2.4,i,0.8

More results.
SMILES	ALR H2O2 inh	Beta2AR agonist	UCH37 DUB inh	E coli growth	LANA-H2B inh	FGF22 binding	HNF4A DNA FP
Cc1ccc(C(=O)OCC(=O)NC(=O)c2cccn2C)cc1[N+](=O)[O-]	4	-2	1.0	0.72	11	i	1.3
Cc1nc2ccccc2n1CC(O)Cn1c2ccccc2c2ccccc21 (stereo unspecified)	-2	25	-3.5	0.64	-3.9	i	-2.2
Cc1noc(C)c1S(=O)(=O)N(CC(=O)NC(C)c1ccccc1)c1ccc(C(C)C)cc1 (stereo unspecified)	2	7	4.3	0.68	-0.5	i	-1.8
Cc1ccc(Nc2nnc(SC3CCOC3=O)s2)cc1 (stereo unspecified)	5	-2	5.7	0.68	-8.4	nt	0.2
COc1ccc(NC(=O)Cn2nc(C(F)(F)F)c3c2CCCC3)c(OC)c1	-3	-5	-1.1	0.73	9.5	nt	-0.1
COC(=O)[C@]1(C)N[C@H](c2ccc(SC3CCCCC3)c(OC)c2)[C@@H]2C(=O)N(C)C(=O)[C@@H]21	-2	-1	-0.1	nt	-4.7	i	-0.5
O=C(NCCc1ccccc1)C1CCN(S(=O)(=O)N2CCC3(CC2)OCCO3)CC1	-17	-4	5.1	0.68	4.7	nt	-0.6
NS(=O)(=O)c1ccc(N/N=C/c2cn(-c3ccccc3)nc2-c2cccs2)cc1	nt	23	nt	nt	-3.9	nt	-0.7
CSc1nc(=S)cc(C)[nH]1	nt	0	2.1	0.67	-0.8	i	0.3
CCn1nc(NS(=O)(=O)c2ccc(F)cc2)c2cc3cccc(C)c3nc21	9	7	-3.7	0.68	-1.4	i	0.6
Cc1ccccc1CN1CCC(n2nccc2NC(=O)c2cccnc2)CC1	-8	-3	3.6	0.72	-0.2	i	-1.5
CC1(C)CC(=O)N(CC(=O)NCc2ccccc2)c2ccccc2S1(=O)=O	nt	4	-0.8	0.76	-4.5	i	2.2
O=C(Nc1ccc(Cl)cc1)N1CCSCC1	-4	-5	-0.5	0.74	2.1	nt	3.4
CC(C)(Oc1ccc(Cl)cc1)C(=O)NC1CCN(Cc2ccccc2)CC1	1	1	5.3	0.68	0.2	i	0.7
Cn1c(=O)c2c(ncn2CC(=O)OCC(=O)Nc2cccc(Cl)c2)n(C)c1=O	-3	4	0.9	0.72	-2.0	nt	1.9
N#Cc1cc2c(=O)n3ccccc3nc2n(Cc2ccco2)c1=NC(=O)c1ccco1	-1	5	-49	0.72	-0.9	i	-8.6
O=C(NCCCNc1ccc([N+](=O)[O-])cc1Cl)c1ccccc1F	-39	-5	5.7	0.68	-6.3	nt	1.2
CC(C)N1CCc2c(sc(NC(=O)CCS(=O)(=O)c3ccccc3)c2C#N)C1	-11	3	-1.6	0.63	4.6	i	-0.7
COc1ccc(NC(=O)N2CCCC2C(=O)NCC2CCCCC2)cc1 (stereo unspecified)	-13	5	3.9	0.65	-0.7	i	3.5
CC(=O)c1ccccc1OCC(=O)Nc1cccc(S(=O)(=O)N2CCCC2)c1	-1	14	2.3	0.65	-3.2	i	-1.5
Cc1ccc(NC(=O)CCc2c(C)nc3ncnn3c2C)nc1	-11	2	-0.1	0.7	-2.5	nt	4.2

Assay outcomes (PubChem)
